Screens from PubChem.
NPYLR7 agonist: mosquito NPYLR7 agonism | HEK293T NPYLR7/Galpha15, GCaMP6s calcium fluorescence | activation, % at 10 µM | 0.15% of 270,000 active; in the data active means activation above about 40%;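 further: 0% = vehicle and 100% = reference agonist at the receptor; some compounds past the cut are filed as inactive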
NPYLR7 agonist max-min: recorded beside NPYLR7 agonist, whose call it bears; activation, %; measured here: Max-Min RFU normalised activation; some inactives read as strong as hits;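 span of the calcium signal over five minutes; 0% = vehicle and 100% = native peptide agonist; compound fluorescence can raise it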
* hit, by the source's call.

molecule | NPYLR7 agonist | NPYLR7 agonist max-min
Cc1cccc(-n2nc3c(c2NC(=O)c2ccc(S(=O)(=O)N(C)C)cc2)CS(=O)(=O)C3)c1C | 1 | 0
CCN(CC)c1nc2c(c(=O)n(C)c(=O)n2C)n1CCCc1ccccc1 | -7 | 4
COc1cccc2cc(C(C)NC(=O)N(C)CC3CCCO3)oc12 (centres undefined) | 1 | 2
COc1cc2c(cc1OC)C(CNC(=O)c1cccc(F)c1)N(C(=O)NC(C)(C)C)CC2 (centres undefined) | 0 | 12
CC(C)NC(=O)N(Cc1c(-c2ccc(F)cc2)noc1N1CCOCC1)C1CC1 | -2 | 8
CC1CCc2c(sc3nc(C(C)C)nc(N4CCOCC4)c23)C1 (centres undefined) | -2 | 2
OC(CNC1CCc2ncnn2C1)c1cccc(F)c1 (centres undefined) | 4 | 0
Cc1ccc(C(C)C)cc1Oc1cc(Cl)nc(N)n1 | 5 | 0
CSc1ccc(/C=C2N=C(/C=C/c3ccc(C)cc3)OC\2=O)cc1 | 0 | -6
Cc1cc(-n2nc(C)cc2NC(=O)c2ccc(F)cc2Cl)nc(C)n1 | -3 | 25
Cc1ccc(C)c2c1sc(=NC(=O)C(C)C)n2C | 13 | 11
O=C(O)CSc1nnc2n(-c3ccccc3)c3ccccc3n12 | 0 | 1
O=C(C1CC1)N(Cc1c(-c2ccccc2)noc1N1CCCCC1)CC1CCCO1 (centres undefined) | 12 | 11
COc1ccnc(N2CCN(C(=O)NCc3cnn(C)c3)CC2)n1 | 12 | 3
COc1cc(CN2C(=O)C(C)ON=C2c2cccs2)cc(OC)c1 (centres undefined) | 5 | 1

(list continues)
molecule | NPYLR7 agonist | NPYLR7 agonist max-min
CC1CCCC(N(C)Cc2ccn(C)c(=O)c2)C1 (centres undefined) | -3 | -4
Cc1ccc(C(=O)n2cc(-c3cccc(Cl)c3)c(N)n2)cn1 | 15 | 16
COC(=O)c1ccc(-c2nc(CN3CCN(c4ccccc4F)CC3)c(C)o2)cc1 | 0 | -1
COc1ccc(N2C(=O)c3ccccc3NC2c2ccc(OC)c(CSc3ccccn3)c2)cc1 (centres undefined) | 21 | 12
COc1cc2c(cc1OC)C(c1ccccc1Cl)N(C(=O)c1ccc(-c3cccc(Cl)c3)s1)CC2 (centres undefined) | 26 | 12
O=C1OCCC1Sc1nc2scc(C3CC3)c2c(=O)n1C1CCCCC1 (centres undefined) | 6 | 6
O=C1/C(=C/c2ccc(-c3ccc([N+](=O)[O-])cc3)o2)C=C(c2ccccc2)N1c1cccc([N+](=O)[O-])c1 | -2 | 8
O=C(c1ccc2c(c1)OCCO2)N(Cc1ccccn1)c1nc2ccc(Cl)cc2s1 | 0 | -6
Cc1nc(CCNC(=O)CC(c2ccccc2)c2ccc(F)cc2)sc1C (centres undefined) | 3 | 6
CC(C#N)c1cccc(C(=O)N2CCOC(COc3ccc4c(c3)CCCC4)C2)c1 (centres undefined) | 15 | 7
CCCCCCNC(=O)c1cc(-c2cccc(OC)c2)n(-c2ccccc2)c1C | -3 | 5
C=C(C)COc1ccccc1C(=O)N1CCCN(c2ncccn2)CC1 | -6 | -10
CN(CCC=C1c2ccccc2CCc2ccccc21)Cc1cc2c(cc1Cl)OCO2 | -8 | -16
O=C(NCCn1nc(-c2cccs2)ccc1=O)c1ccco1 | 0 | -3
COc1ccc(NC(=O)c2cc3c(s2)CCCC3)cn1 | -1 | -3

(more compounds)
molecule | NPYLR7 agonist | NPYLR7 agonist max-min
O=S(=O)(Oc1ccc2c(c1)OCO2)c1cccc(C(F)(F)F)c1 | -1 | 6
O=S1(=O)N=C(Nc2cccc(Cl)c2)c2ccccc21 | 19 | 16
C=C(C)Cn1c(SCC(=O)N/N=C\c2cccnc2)nnc1-c1ccc(Br)cc1 | -5 | -10
O=C(NCC(F)(F)F)c1ccn(-c2ccccc2)n1 | 5 | 3
CC(CN1CCCC1)CN(C)C(=O)c1ccc(NC(=O)C2CCC2)cc1 (centres undefined) | 21 | 5
N#Cc1ccc(CN2CCN(C(=O)CC3OC(=O)c4ccccc43)CC2)cc1 (centres undefined) | 2 | 4
Oc1c(C(c2ccncc2)N2CCCC2)ccc2cccnc12 (centres undefined) | 6 | 2
CNC(=O)[C@@H]1C[C@H](N)CN1Cc1ccc(-n2cncn2)cc1 | 4 | 0
Cc1csc2nc(CNC(CN3CCOCC3)c3ccccc3)cc(=O)n12 (centres undefined) | 2 | 1
CSc1ncc(CN2CCC(n3nccc3NC(=O)CCc3ccccc3)CC2)cn1 | 5 | 0
Cn1c(CC#N)nc2ccccc21 | 6 | 6
CCn1nc(C(=O)N(Cc2cccnc2)c2nc3c(Cl)cccc3s2)cc1C | 0 | 0
N#Cc1cccnc1NCCCc1nc2ccccc2s1 | 2 | 2
CCCCN(C=O)c1c(CC)nc2ccc(C(=O)N3CCN(C)CC3)cn12 | 3 | -3
Cc1ncoc1C(=O)N1CCCC(N2CCN(c3ccccc3F)CC2)C1 (centres undefined) | 4 | 4

(list continues)
molecule | NPYLR7 agonist | NPYLR7 agonist max-min
Cc1cccc(C)c1OC1CN(C(=O)CCn2ccc(=O)[nH]c2=O)C1 | 8 | 4
C=c1oc(C)cc1=C1NN=C(CCC(=O)NCC2(c3ccccc3)CCOCC2)O1 | 9 | -1
O=C(N[C@@H]1c2ccccc2C2(CCNCC2)[C@H]1OCc1cccnc1)c1ccco1 | 7 | 4
CCN(CC(=O)Nc1c(-c2ccccc2)c(C)nn1-c1ccccc1C)C(=O)c1ccc(Br)cc1 | -13 | -11
CC(NCC(O)COCC12CC3CC(CC(C3)C1)C2)c1ccccc1 (centres undefined) | 4 | 1
CN(C)c1ccc(C(=O)N2CCN(c3nc4nccc(-c5cccnc5)n4n3)CC2)cc1 | 0 | 0
COc1ccc(-c2nc3ccccn3c2NC(=O)C2CCC2)cc1OC | 5 | 4
NS(=O)(=O)c1ccc(Nc2nc(-c3ccccc3)c3cc(Br)ccc3n2)cc1 | -8 | -12
CCS(=O)(=O)N1CCCC(C(=O)NC2CCCC[C@H]2N(Cc2ccc(Cl)cc2)C(=O)c2ccccc2)C1 (some centres undefined) | 0 | 0
COc1cccc(C(=O)N2CCN(C(=O)CCCSc3nnc(-c4ccco4)n3-c3ccccc3C)CC2C)c1 (centres undefined) | 17 | 13
CCN(CC)CCn1c(C)c(C)n2c3c(=O)n(Cc4ccc(C)cc4)c(=O)n(C)c3nc12 | -4 | -5
CC(CCn1cccn1)NC(=O)C(C)(C)NC(=O)c1cccs1 (centres undefined) | 6 | 4
CCn1cc(C(CC(=O)O)c2ccc(Cl)cc2)c2ccccc21 (centres undefined) | 1 | 4
Cn1cc(N2CCN(c3ccc(C#N)c(Cl)c3)CC2=O)cn1 | -2 | -3
COc1ccccc1N1CCN(c2ccc(NC(=O)c3ccc4ccccc4c3)cc2C(=O)NCC2CCCO2)CC1 (centres undefined) | 2 | -6

The results go on:
molecule | NPYLR7 agonist | NPYLR7 agonist max-min
CC(C)CNC(=O)N1CCCC(C(=O)N2CCC(c3ccco3)C2)C1 (centres undefined) | 3 | 2
COc1ccc(-c2nc3c4cnn(-c5ccccc5Cl)c4ncn3n2)c(O)c1 | 4 | 2
CCOc1ccc(N2CCN(C(=O)c3ccc(Br)cc3)C(C)C2=O)cc1 (centres undefined) | -1 | 6
Cc1ccc(CN2CC(O)CN(C(=O)c3ccc(C)cc3)CC2=O)cc1 (centres undefined) | 26 | 29
CC(C#N)CNc1ncnc2ccc(Br)cc12 (centres undefined) | -7 | -7
Cc1cccc(C)c1OC1CN(C(CO)CO)C1 | 3 | 3
Cc1ccc(C)c(CSc2nc(=O)[nH]c3c2CCC3)c1 | -1 | -6
Cc1ccc(Cl)cc1NC(=O)CC(=O)NC1CCN(S(C)(=O)=O)CC1 | 3 | 1
Cc1cc(Oc2ccccc2F)nc(SCc2ccc(F)cc2)n1 | 23 | 19
COc1ccc(CN(Cc2ccco2)CC(O)COCC(C)C)cc1OC (centres undefined) | 9 | 17
CC(C)C1CN(C(=O)NCc2ccco2)CCCN1Cc1ccc(F)cc1 (centres undefined) | 5 | 4
c1ccc(CC2CN(C3CC3)CCN2)cc1 (centres undefined) | -3 | 4
O=C(CN1CN(c2ccccc2)C2(CCN(C(=O)c3ccc(Cl)cc3)CC2)C1=O)Nc1ccc(F)cc1 | 25 | 24
COc1ccccc1C1CCN(S(=O)(=O)c2cc(Cl)ccc2C)C1 (centres undefined) | -10 | -10
CCOC(=O)[C@@H]1[C@H](c2ccccc2)[C@@H](NC(=O)c2ccc(NC(C)=O)cc2)[C@H]2CCCN21 | 3 | 14

The listing continues:
molecule | NPYLR7 agonist | NPYLR7 agonist max-min
COc1ccccc1-c1csc2nc(CN(CC(O)COCC(C)C)C3CCCCC3)[nH]c(=O)c12 (centres undefined) | -8 | 13
Cc1cc(C)cc(NCCn2c(C)cn3c4c(=O)[nH]c(=O)n(C)c4nc23)c1 | 1 | 9
CC(C)N(CC(=O)N(CCc1c[nH]c2ccccc12)Cc1ccc(C(F)(F)F)cc1)C(=O)c1cccc(F)c1 | -8 | 1
Cc1ccc(-n2c(SCc3ccc(F)cc3)nnc2C(C)NC(=O)c2ccccc2F)cc1 (centres undefined) | 18 | 21
Cc1cc(OCC(=O)OCc2ccccc2C#N)ccc1Cl | -1 | -2
CCOc1ccc(C(=O)NNC(=O)c2ccnn2C)cc1 | 10 | 6
C1=NN2C(SCc3nnc(-c4ccco4)o3)=Nc3ccccc3C2C1 (centres undefined) | -2 | 5
Cc1[nH]c2ccccc2c1C(Nc1ccccn1)c1ccccn1 (centres undefined) | 1 | 0
O=C1CC(Nc2ncnc3c2CCC3)CN1CCCc1ccccc1 (centres undefined) | -4 | -5
CC1=C(C(=O)N2CCCCC2)C2(CCCCC2)OC1=O | 8 | 11
Cc1oc(NC(=O)C(C)N2CCNC(=O)CC2)c(C#N)c1C (centres undefined) | 13 | 11
C=CCN(CC=C)C(=O)CSc1nnc(N)s1 | 0 | -1
COc1ccccc1C(=O)N1CCC[C@@H]1C(=O)NCCNC(=O)c1ccc(F)cc1 | 17 | 12
S=C1NC2(CCCC2)N=C1c1ccc(Br)cc1 | -5 | -2
Cc1cnc(-c2cnc(NCCNc3ccc(C#N)cn3)nc2-c2ccc(Cl)cc2Cl)[nH]1 | -8 | -10

(further entries)
molecule | NPYLR7 agonist | NPYLR7 agonist max-min
CCCCC/C=C\C/C=C\C/C=C\CCCCC(=O)N1CCN(Cc2cc(=O)c(OCc3cccc(F)c3)co2)CC1 | 0 | 1
Nc1nc(-c2ccccc2)c(N=Nc2ccc3c(c2)OCCO3)s1 | 8 | 7
COc1cccc(C(=O)NC(C(=O)N2CCCC2)C2CCN(C(=O)Nc3ccc(C)cc3)CC2)c1 (centres undefined) | 9 | 13
CCOc1ccccc1N1CCN(C(=O)c2cc(-c3ccccc3F)nn2-c2ccc(Cl)c(Cl)c2)CC1 | 1 | 13
CCCCC(=O)N(CC(=O)Nc1cc(C(C)(C)C)nn1-c1ccccc1)CC(C)C | -8 | -6
CC1SC(c2ccccc2F)N(CC(=O)O)C1=O (centres undefined) | 4 | 4
COc1cc(Br)c(S(=O)(=O)N2CCCc3c(C(N)=O)cccc32)cc1OC | 6 | 4
O=C1/C(=C\c2ccc(-c3ccccc3[N+](=O)[O-])o2)C(c2ccccc2)=NN1c1ccccc1 | -4 | -8
O=C(O)C1=Cc2cc(Cl)ccc2OC1 | 1 | 34
C=CCn1c(=O)c2c(nc3n2CC(C)=NN3CC(=O)OCC)n(C)c1=O | -4 | -3
Cc1cc(=O)n2c(n1)NC(N1CCOCC1)=NC2c1ccc(Cl)cc1 (centres undefined) | -15 | -20
CC1CCN(Cc2nnnn2CCCC(=O)N2CCN(C3CCCC3)C(=O)C2)CC1 | 19 | 8
N#CCCN(C(=O)CN1CCCC1Cc1ccccc1)c1ccccc1F (centres undefined) | 16 | 7
CN1CCN(C(=O)c2coc(COc3cccc(C(F)(F)F)c3)n2)CC1=O | 5 | 3
CC1CC1C(=O)Nc1ccc(F)cc1C(=O)NC(C)C1CCCO1 (centres undefined) | 19 | 20

Grouped by structure, those above with a cyano group (ten)
molecule | NPYLR7 agonist | NPYLR7 agonist max-min
CC(C#N)c1cccc(C(=O)N2CCOC(COc3ccc4c(c3)CCCC4)C2)c1 (centres undefined) | 15 | 7
N#Cc1ccc(CN2CCN(C(=O)CC3OC(=O)c4ccccc43)CC2)cc1 (centres undefined) | 2 | 4
Cn1c(CC#N)nc2ccccc21 | 6 | 6
N#Cc1cccnc1NCCCc1nc2ccccc2s1 | 2 | 2
Cn1cc(N2CCN(c3ccc(C#N)c(Cl)c3)CC2=O)cn1 | -2 | -3
CC(C#N)CNc1ncnc2ccc(Br)cc12 (centres undefined) | -7 | -7
Cc1cc(OCC(=O)OCc2ccccc2C#N)ccc1Cl | -1 | -2
Cc1oc(NC(=O)C(C)N2CCNC(=O)CC2)c(C#N)c1C (centres undefined) | 13 | 11
Cc1cnc(-c2cnc(NCCNc3ccc(C#N)cn3)nc2-c2ccc(Cl)cc2Cl)[nH]1 | -8 | -10
N#CCCN(C(=O)CN1CCCC1Cc1ccccc1)c1ccccc1F (centres undefined) | 16 | 7

(listing goes on)
molecule | NPYLR7 agonist | NPYLR7 agonist max-min
CC(C)CCNC(=O)NC(=O)COc1ccccc1I | -6 | -6
Cc1ccc(C(=O)N2CCN(c3nc4nccc(-c5ccc6c(c5)OCO6)n4n3)CC2)cc1C | -1 | -3
Cc1cn2c3c(=O)n(CCN4CCOCC4)c(=O)n(C)c3nc2n1-c1cccc(Cl)c1 | 5 | 3
COc1ccc(OCCS(=O)(=O)c2nc3ccccc3[nH]2)cc1 | 22 | 17
O=C(NCCCN1CCCC1=O)c1cccc2c3c([nH]c12)CCC3 | 5 | 0
CC1(C)NN2C(=O)OC3(C)CCC1C23C (centres undefined) | -3 | -7
COc1cc(COc2cc(C)ccc2C(N)=O)cc(Br)c1OC | 13 | 12
O=S1(=O)CC=C(S(=O)(=O)N2CCCC3(CCNC3)C2)C1 (centres undefined) | 6 | 3
CCCCN(CC(=O)N1CCc2sccc2C1c1ccc(C)cc1)S(=O)(=O)c1ccc(NC(C)=O)cc1 (centres undefined) | -2 | 5
Cc1cc(NC(=O)c2cccs2)n(-c2nc(C)c(C)c(=O)[nH]2)n1 | 11 | 5
COc1ncc(C(=O)NC(C)C23CC4CC(CC(O)(C4)C2)C3)cn1 (centres undefined) | 2 | 0

The list is partial; rates above refer to the full screens.
